miR-21 reporter – raises the signal of a miR-21 reporter; HeLa miR-21 FLuc reporter, luciferase, 48 h; Potency, µM (doses to about 38.3 µM), without a hit: at the highest dose reporter change, positive = more light; 340,000 tested, under 10 active; active = well fitted rising curve with a large enough effect; inconclusive = small, poorly fitted or top-dose-only effect; inactive = no such curve, though single readings can be large or run the other way;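 further: % of control where 0% means no effect; miR-21 action dims this reporter so a rising signal means less miR-21 action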
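HeLa cells stably expressing CMV-driven firefly luciferase with a downstream miR-21 binding sequence, endogenously expressing miR-21, were treated with titrations (up to about 40uM final) for 48 hours at 37 degree Celsius. Luciferase luminescence was read after lysis.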
Rango-impB inh – prevents formation of the Rango-importin beta complex; Q14974; Potency, µM (doses to about 92.2 µM), for inactives: at the top dose inhibition of complex formation; Rango CFP/YFP FRET sensor + importin beta, 45 min; hit rate 0.031% among 340,000; active = rising FRET ratio curve, often small or poorly fitted; inconclusive = mostly compound fluorescence or quenching in the first reads; inactive = flat curves in all reads;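 further: potency means the concentration at half of the fitted maximal effect; 0% = DMSO wells and 100% = buffer wells lacking importin beta; nearly all actives have a fitted effect of over 15% in size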
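Inhibition scored from the CFP 486 nm/YFP 530 nm FRET ratio 45 min after adding 0.125 microM importin beta to 50 nM Rango biosensor preincubated 5 min with compound (room temperature, PBS with DTT, Tween-20, BSA). No-importin wells as positive control.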
GLA inh pH 4.5 – inhibitors of human alpha-galactosidase A at pH 4.5. purified enzyme, 4-MU-alpha-Gal fluorescence, pH 4.5. 230,000 tested, under 10 active. activity change, negative = inhibition, % at 105 µM. P06280; inconclusive = small, poorly fitted or top-dose-only inhibition, or a rising curve; inactive = flat fitted curve, though single readings scatter; no compound was filed as active;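 further: 0% = full activity with enzyme and -100% = basal without enzyme; dose as in the result columns while the protocol names 77 µM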
Target sequence (P06280 whole entry, looked up): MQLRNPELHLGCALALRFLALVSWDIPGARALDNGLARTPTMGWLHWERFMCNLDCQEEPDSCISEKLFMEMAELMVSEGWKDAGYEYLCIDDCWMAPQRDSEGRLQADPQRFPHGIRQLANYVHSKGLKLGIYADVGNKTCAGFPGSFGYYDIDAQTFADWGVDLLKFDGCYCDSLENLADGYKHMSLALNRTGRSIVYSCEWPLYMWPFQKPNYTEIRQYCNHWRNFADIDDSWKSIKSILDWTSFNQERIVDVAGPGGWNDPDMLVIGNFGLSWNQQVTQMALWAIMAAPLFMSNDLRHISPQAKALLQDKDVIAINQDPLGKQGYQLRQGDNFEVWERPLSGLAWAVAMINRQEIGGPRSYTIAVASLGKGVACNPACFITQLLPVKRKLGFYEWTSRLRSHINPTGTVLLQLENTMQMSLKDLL
Rango release inh – prevents RanGTP from dissociating the Rango-importin beta complex. O95149+P62826. AID 540253. hit rate 0.071% among 340,000. Potency, µM (titrated, usually from 46.1 µM), inactives show top-dose activity change, negative = inhibition. Biochemical FRET Rango-importin beta, RanGTP-induced dissociation; active means falling FRET ratio curve, often poorly fitted, with flat reads before Ran was added; inconclusive means other falling curves, or compound fluorescence or quenching; inactive means flat or rising ratio curve;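 further: potency means the concentration at half of the fitted maximal effect; % of control where 0% means no effect; nearly all actives have a fitted effect of over 45% in size; -100% = wells without RanGTP and RCC1; the record marks most hits as doubtful in a second field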
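Rango/importin beta premix (0.1/0.25 uM final), PBS + 1 mM DTT + 0.02% Tween-20 + 0.1% BSA; cpd 5 min RT; FRET pre-read; + RanGTP-RCC1 (0.6 uM Ran, 2 mM GTP, 0.2 uM RCC1); 45 min RT; FRET post-read, ex 430, em 486/530 nm.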
Starred values were filed as active, the others as inactive; ? = inconclusive; . = not tested or not shown; & = joins results of further samples.

SMILES	miR-21 reporter	Rango-impB inh	GLA inh pH 4.5	Rango release inh
COC(=O)c1ccccc1NC(=O)c1ccc2c(c1)OCCO2	-14%	4.3%	-5	-1%
CC1(C)CC(=O)C(C(C2=C(O)CC(C)(C)CC2=O)c2cccc(O)c2)C(=O)C1 (centres undefined)	-3%	-0.4%	-8	5%
Nc1nc2c(F)c(F)c(F)cc2s1	-10%	0.2%	-30	-13%
COc1cccc(C2=NN(C(=O)c3ccco3)C(c3ccco3)C2)c1 (centres undefined)	-31%	?	.	-29%
CC(=O)N1C(C(=O)O)Cc2c([nH]c3ccccc23)C1(C)C (centres undefined)	0%	?	.	-29%
O=C(c1ccc(Cl)c(Cl)c1)N(Cc1ccco1)c1ccc(O)cc1	19%	0.6%	-1	-2%
N#CC1=C(SCC(=O)c2ccccc2)NC2=C(C(=O)CCC2)C1c1ccco1 (centres undefined)	-15%	?	-5	?
Cc1[nH]c(=O)c(C#N)c2c1CCCC2	-15%	4.1%	1	-7%
Cc1c(C)c2cc3c4c(oc3c(C)c2oc1=O)CCCC4	-8%	-1.2%	-7	-13%
COc1ccc(CCNC(=O)COC(=O)c2ccc(S(=O)(=O)N3CCCC3)cc2)cc1OC	.	1.1%	.	1%
Cc1onc(-c2c(F)cccc2Cl)c1C(=O)OCC(=O)NCc1ccccc1	.	?	.	14%
O=C(/C=N/O)NCc1ccncc1	-7%	-1.7%	-1	?
Cn1c2c(c(=O)n(C)c1=O)C(c1cccc(F)c1)C(C#N)=C(N)O2 (centres undefined)	0%	-3.0%	5	-6%
CCCCCN=C(N)N/N=C/c1c[nH]c2ccc(OC)cc12	.	4.1%	9&-2	5%
COc1ccc(OC)c(S(=O)(=O)N2CCC(c3nc4ccccc4[nH]3)CC2)c1	.	4.1%	.	1%
Clc1ccc(-c2nnc(CCc3ccccc3)o2)c(Cl)c1	-57%	-2.8%	-7	3%
CSc1ncccc1C(=O)Nc1ccc(OC(F)(F)F)cc1	-15%	-1.2%	-8	-11%
Cc1ccccc1OC1CCN(C(=O)C2CCC(=O)N(C3CCCC3)C2)CC1 (centres undefined)	6%	3.6%	.	-16%
Cc1ccc(S(=O)(=O)N(Cc2ccc(F)cc2)C(=O)N2CCN(C)CC2)cc1	.	-5.7%	.	0%
Cc1ccc(C(=O)NC2=NCCS2)cc1	-59%	.	0	.
CC1(C)CC(=O)C(C=NCCN2CCN(CCc3ccccc3)CC2)=C(O)C1	-10%	1.3%	-1	12%
CCc1ccc(C(=O)COC(=O)c2cnc(C)cn2)cc1	1%	-1.7%	-2	-13%
Cc1cc(C)nc(-n2ncc3c2CC(c2ccc(F)cc2)CC3=O)n1 (centres undefined)	-8%	-3.5%	10	7%
CCOC(=O)c1[nH]c(C)c(/C(O)=C2\C(=O)C(=O)N(CCCN(CC)CC)C2c2cccnc2)c1C (centres undefined)	.	0.1%	.	11%
Cc1ccccc1OCCC(=O)Nc1ccccc1C(=O)NC1CC1	.	-0.8%	.	-2%
CC(=O)c1cccc(N(C(=O)c2ccco2)C(C(=O)NC2CCCCC2)c2ccc(C)o2)c1 (centres undefined)	-3%	?	.	2%
Cc1ccc2oc(-c3cc(NC(=O)c4ncn[nH]4)ccc3O)nc2c1	-5%	1.1%	7	0%
COc1ccc(N=C2C(=Nc3ccc(OC)cc3)N(c3ccc(OC)cc3)C(=S)N2c2ccccc2)cc1	-56%	0.9%	1	1%
COCCNC(=O)COC(=O)c1ccc(S(=O)(=O)N2CCOCC2)cc1	0%	0.2%	-1	1%
CCCOc1cccc(-c2nc3ccccc3c(=O)o2)c1	-13%	3.1%	3	3%
Cc1cc2nc(CCN(Cc3cccnc3)C(=S)Nc3ccccc3)[nH]c2cc1C	2%	-0.5%	-4	6%
COc1ccc(S(=O)(=O)N2CCCCC2)cc1NC(=S)Nc1ccccc1	-14%	-3.4%	-6	11%
Cc1ccc(NC(=O)COc2ncnc3ccccc23)cc1S(=O)(=O)N1CCOCC1	2%	0.9%	0	22%
O=C(CSc1nnc(-c2ccccc2)n1Cc1ccccc1)NNC(=O)c1ccccc1O	-3%	-1.1%	4	2%
CN(c1ccccc1)S(=O)(=O)c1cccc(C(=O)Nc2ncn[nH]2)c1	2%	-1.7%	5	7%
CCCn1nnc(NC(=O)c2ccc([N+](=O)[O-])cc2Cl)n1	-29%	3.3%	5	4%
COc1cccc(C(=O)OCC(=O)Nc2ccc(N3CCOCC3)cc2)c1	.	0.3%	.	2%
Cc1onc(-c2ccccc2Cl)c1C(=O)N[C@@H](C)c1ccccc1	.	7.8%	.	-3%
O=C(COc1ccc(-c2ccccc2)cc1)N1CCN(S(=O)(=O)Cc2ccccc2)CC1	12%	2.9%	-11	1%
CCOC(=O)c1csc(NC(=O)CN2CCN(C)CC2)n1	-1%	0.2%	.	12%
CC1CC(C)CN(C/C=C/c2ccccc2[N+](=O)[O-])C1 (centres undefined)	-2%	-2.4%	0	2%
Cc1ccc2nc(C(F)(F)F)c(C#N)c(N)c2c1	25%	-2.1%	-6	5%
COCCN1C(=O)N(c2cccc(C)c2)C(=O)C1CC(=O)Nc1cc(OC)cc(OC)c1 (centres undefined)	-2%	0.8%	.	-15%
CN(CCCC(=O)NCc1ccc2c(c1)OCO2)S(=O)(=O)c1ccc([N+](=O)[O-])cc1	5%	5.2%	.	51%
CCOC(=O)/C=C/c1ccc2c(c1)S(=O)(=O)N(c1cccc(OC)c1)[C@H]2CC(=O)OCC	.	-0.7%	.	-10%
COc1ccc(-c2nc(CS(=O)CC(=O)NCc3ccc(C)cc3)c(C)o2)cc1OC (centres undefined)	-9%	-2.5%	.	?
Cn1c(NC(=O)c2ccccc2F)c(-c2cccs2)c(=O)c2ccccc21	-1%	-1.0%	-13	-3%
Cc1ccc(S(=O)(=O)Nc2nc(C)c(C(=O)NN)s2)cc1	2%	?	1	-8%
O=C(COC(=O)c1cc2ccccc2cc1O)c1ccccc1	-4%	-0.6%	.	-16%
N#Cc1ccccc1OCC(=O)Nc1ccccc1C(=O)NC1CC1	.	3.7%	.	17%
O=C(Nc1ccccc1)c1ccc(CSc2ccccn2)cc1	-15%	3.0%	-3	8%
CCN(CC(=O)Nc1ccc2c(c1)OCCO2)C(=O)/C=C/c1cccc(OC)c1OC	.	3.6%	.	17%
COc1ccc2c(c1)oc(=O)c1ccccc12	-37%	0.2%	4	0%
COC(=O)c1c(NC(=O)COC(=O)c2ccccc2O)sc2c1CCCCC2	2%	4.2%	-2	2%
Fc1ccc(CNC(=S)NC2CCCCC2)cc1	-1%	-0.7%	-10	-23%
O=C(CONS(=O)(=O)c1ccc(Cl)cc1)NCCNc1ncc(C(F)(F)F)cc1Cl	4%	4.9%	5	14%
CCOc1cc(NC(=S)NCC2CCCO2)c(OCC)cc1NC(=O)c1ccccc1 (centres undefined)	11%	1.8%	-7	7%
O=C(C1=C[C@@H](C2CCCCC2)C[C@@H](OCc2ccc(CO)cc2)O1)N1CCOCC1	0%	0.0%	2	20%
Cc1cccc(-n2nc3c(c2NC(=O)c2ccco2)CSC3)c1C	-4%	2.9%	-7	-9%
CCOC(=O)N1CCN(S(=O)(=O)CCNC(=O)c2ccc(F)cc2)CC1	.	8.2%	.	21%

Further records:
SMILES	miR-21 reporter	Rango-impB inh	GLA inh pH 4.5	Rango release inh
CC1=NN(c2cc(Cl)c(S(=O)(=O)O)cc2Cl)C(=O)C1	.	-2.1%	.	-3%
COc1cccc(C2Nc3ccccc3NC3=C2C(=O)CC(C)(C)C3)c1OC (centres undefined)	-4%	4.2%	.	-9%
O=C1CSc2ccc(S(=O)(=O)NCc3ccccc3)cc2N1	0%	?	.	-14%
CC1Cc2ccccc2N1C(=S)Nc1cccc(S(=O)(=O)N(C)C)c1 (centres undefined)	2%	-2.4%	-10	-10%
CCn1cc(C(=O)Nc2ccc3c(c2)OCCO3)c2cc(OC)c(OC)cc2c1=O	4%	-1.1%	-6	5%
Nc1c(C(=O)c2ccccc2)sc2nsc(SCCN3CCOCC3)c12	-36%	?	-13	?
CCCCCN(C(=O)CSc1n[nH]c(-c2ccc(C)cc2)n1)c1c(N)n(CCCC)c(=O)[nH]c1=O	.	?	.	2%
CCC(=O)N1CN(S(=O)(=O)c2ccc(C)cc2)CC1C (centres undefined)	-2%	-1.0%	5	5%
Cc1ccc(N(CC(=O)NCC2CCCO2)S(=O)(=O)c2ccc(Cl)cc2)cc1C (centres undefined)	0%	1.8%	.	18%
CCOP(=O)(OCC)C(NC(=O)c1cccs1)c1ccccc1 (centres undefined)	2%	-0.3%	.	-9%
COc1ccc(Br)cc1CN1CCCC(C(=O)N2CCCCC2)C1 (centres undefined)	-1%	4.7%	-12	5%
O=C(N/N=C/c1ccc([N+](=O)[O-])cc1)c1cccc(N2CCCC2=O)c1	-7%	-2.5%	.	9%

Filtered by structure: the entries above containing a furan ring, fused or not
SMILES	miR-21 reporter	Rango-impB inh	GLA inh pH 4.5	Rango release inh
COc1cccc(C2=NN(C(=O)c3ccco3)C(c3ccco3)C2)c1 (centres undefined)	-31%	?	.	-29%
O=C(c1ccc(Cl)c(Cl)c1)N(Cc1ccco1)c1ccc(O)cc1	19%	0.6%	-1	-2%
N#CC1=C(SCC(=O)c2ccccc2)NC2=C(C(=O)CCC2)C1c1ccco1 (centres undefined)	-15%	?	-5	?
Cc1c(C)c2cc3c4c(oc3c(C)c2oc1=O)CCCC4	-8%	-1.2%	-7	-13%
CC(=O)c1cccc(N(C(=O)c2ccco2)C(C(=O)NC2CCCCC2)c2ccc(C)o2)c1 (centres undefined)	-3%	?	.	2%
Cc1cccc(-n2nc3c(c2NC(=O)c2ccco2)CSC3)c1C	-4%	2.9%	-7	-9%

Next section:
SMILES	miR-21 reporter	Rango-impB inh	GLA inh pH 4.5	Rango release inh
COc1cc(C)c(NC(=O)c2cccc(S(=O)(=O)N3CCCC3)c2)cc1OC	.	-0.9%	.	-1%
Cc1cc(NC(=S)N(CCCN2CCOCC2)Cc2ccco2)ccc1Cl	8%	-4.5%	-6	13%
Cc1cc(C)c(NC(=O)COC(=O)C2=COCCO2)c(Cl)c1	.	0.1%	.	-5%
CS(=O)(=O)c1ccc(Cl)c(NC(=O)c2cc(S(=O)(=O)N3CCOCC3)ccc2N2CCCC2)c1	.	2.9%	.	-1%
CCC1(c2ccc(C)cc2)NC(=O)N(C(C)C(=O)Nc2ccc(N3CCOCC3)cc2)C1=O (centres undefined)	.	-0.6%	.	?
Cn1nc(C(=O)NCCc2ccc(S(N)(=O)=O)cc2)c2c1-c1ccccc1S(=O)(=O)C2	2%	5.4%	.	-2%
Cc1ccc(Cn2c(NC(=O)c3ccco3)nc3ccccc32)cc1	2%	-5.5%	4	1%
COCCn1c(SCc2cccnc2)nnc1-c1c[nH]c2ccccc12	-9%	1.0%	-3	-11%
COc1ccc(CN(C)C(=O)c2ccc(NS(=O)(=O)c3ccc(C)c([N+](=O)[O-])c3)cc2)c(OC)c1OC	.	3.4%	.	19%
Cc1ccc(CN(CC(=O)N/N=C/c2ccco2)S(=O)(=O)c2ccc(C)cc2)cc1	-1%	1.9%	0	18%
COc1ccc(C(=O)c2coc3ccc(O)c(CN(C)C)c23)cc1	-7%	-4.6%	-2	-13%
COc1ccc(S(=O)(=O)N(C)C)cc1NC(=O)COC(=O)C1CC1	.	6.6%	.	-1%
COc1ccc(C(=O)Nc2c(C)csc2C(=O)O)cc1	-3%	-0.6%	-24	-13%
Cc1ccc(C)c(NC(=O)C2CC3CCC2C3)c1 (centres undefined)	-27%	-0.4%	.	5%
Cc1nc2cc(F)ccc2n1C1CCN(S(=O)(=O)c2ccccc2)CC1	14%	1.2%	2	-3%
CC1CCCN(C(=O)CSc2cnc3ccccc3n2)C1 (centres undefined)	-51%	3.6%	2	-6%
CSc1ccccc1NC(=O)C1=CC(c2cccs2)=NS(=O)(=O)N1C	0%	-4.2%	.	-5%

Three entries from above, with values under each structure:
Values in the order – miR-21 reporter, Rango-impB inh, GLA inh pH 4.5, Rango release inh
Cc1ccc(C)c(NC(=O)C2CC3CCC2C3)c1 (centres undefined)
 : -27%, -0.4%, ., 5%
Cc1nc2cc(F)ccc2n1C1CCN(S(=O)(=O)c2ccccc2)CC1
 : 14%, 1.2%, 2, -3%
CC1CCCN(C(=O)CSc2cnc3ccccc3n2)C1 (centres undefined)
 : -51%, 3.6%, 2, -6%

An excerpt, so the mix of outcomes need not match the whole.
